Screens as filed in PubChem BioAssay.
Mtb hypoxia inh: PubChem AID 1159583. actives 0.1% (n = 300,000). fluorescence inhibition, % (concentration not given with the values). M. tuberculosis hypoxia-regulated fluorescent reporter, fluorescence;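 active = 35 to 45% if threefold the growth effect, above 45% if 1.5-fold the growth effect; inactive = the rest, general growth blockers included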;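 note: wells of about 50 µL received 100 nL stock; 0% = vehicle wells and 100% = reference inhibitor wells; whole bacteria with a GFP reporter of the hypoxia response; strong numbers were not always called active; many hits fall short of the cut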
BJeLR viability: MLPCN primary cell-based screen for lethality selective to Ras in HRASV12 cells; actives 0.17% (n = 300,000); inhibition, % (concentration not given with the values); BJeLR (HRASV12) viability, CellTiter-Glo ATP luminescence, 48 h; reference of the scale not given here;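 active = replicate mean above 50%; inconclusive = above 50% but judged a plate artefact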;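 note: 50 nL library stock added to about 25 µL; numbers are from one replicate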
PrP UTR inh: inhibition of PrP 5' UTR reporter expression. cell-based PrP 5' UTR mRNA reporter, plate reader. inhibition, % (test concentration not listed). actives 0.35% (n = 340,000);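 active = every replicate at 50% or more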;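 note: 0 = median of the neutral control wells; tested in H4 reporter cells; numbers are from one replicate; inactives centre near -14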
Sa RN4220 lethal: growth inhibition of S. aureus RN4220, primary screen, OD600 | AID 1259311, 2017 | 16 h | actives 0.33% (n = 330,000) | inhibition, % (test concentration not listed);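 active = z-score of -3 or lower and OD600 up to 0.18 on both plates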;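 note: plate controls were untreated cells for no effect and reference antibiotic for full effect; stock transfer was 100 nL into about 80 µL; one replicate is shown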
Autofluor counter: compound fluorescence in toxin protease inhibitor counterscreen | compound autofluorescence counterscreen, microsphere flow cytometry; hits give high values | actives 3.1% (n = 360,000) | fluorescence intensity (no concentration beside the values);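 active = at least 3 SD above the mean of all compounds, about 16000 in these data; inconclusive = too few beads counted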;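 note: 100 nL of 1 mM stock went into each well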
Sa ugtP lethal: growth inhibition of ugtP-null S. aureus, primary screen, RN4220 ugtP deletion, OD600; growth inhibition, % (concentration not given with the values); actives 0.54% (n = 330,000); 16 h; some inactives read as strong as hits; AID 1259309, 2017;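 active = z-score under -3 and OD600 up to 0.15 on both plates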;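 note: plate controls were untreated wells for no effect and antibiotic for full effect; wells of about 80 µL received 100 nL stock; the first replicate is given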
Mtb hypoxia inh growth: recorded beside Mtb hypoxia inh, whose call it bears; growth inhibition, %; measured here: M. tuberculosis growth (absorbance);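 0% = vehicle and 100% = reference antibiotic; read after six days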
Numbers without * were called inactive; ? = inconclusive; / = not tested or not shown.

The line under a structure holds: Mtb hypoxia inh	Mtb hypoxia inh growth	BJeLR viability	PrP UTR inh	Sa RN4220 lethal	Autofluor counter	Sa ugtP lethal
> CCc1ccc(OC(C)C(=O)N(Cc2ccco2)C2CCS(=O)(=O)C2)cc1 (stereo unspecified)
  -3	-4	11	1	2.6	5567	1
> O=C1NC(=O)C(=Cc2ccc3ccccc3c2)C(=O)N1
  8	10	10	-15	7.6	2927	2
> CCCOc1ccc2oc(=O)c3c(c2c1)CCCN3C(=O)CN1CCc2ccccc2C1
  /	/	/	7	9.9	4823	86*
> Cc1nc2cc(C(=O)NCc3ccc4c(c3)OCO4)ccc2n1-c1ccc(Br)cc1
  0	2	9	-15	-16	2599	96*
> Cc1ccc(S(=O)(=O)N(CC(=O)Nc2ccc(C)cc2C)C(=O)N2CCN(C)CC2)cc1
  7	4	14	-25	3.0	4848	10
> CS(=O)(=O)c1ccc(Cl)c(NC(=O)CCN2C(=O)NC3(CCCC3)C2=O)c1
  8	1	/	-14	2.3	3229	5
> CNc1nnc(C(F)(F)F)s1
  12	6	-11	-24	3.0	6176	6
> Nc1nc(CSc2ncn[nH]2)nc(Nc2ccc(F)cc2)n1
  12	-3	-9	-26	3.1	2110	-1
> COc1ccc2nc(N3CCCC3)c(C#N)cc2c1
  13	6	-23	-46	4.5	3689	-4
> CCCNC(=O)N1CCN(S(=O)(=O)c2ccc(C)cc2)CC1
  2	6	-7	-18	1.1	9568	-2
> CCn1c(SCC(=O)NC2CCCCC2)nc2c(c1=O)SCC2
  5	-3	-14	-2	1.7	5615	3
> C#CCOCCOCCOCCNc1nc(N2CCOCC2)nc(N2CCN(C(=O)C(Cc3cc4ccccc4[nH]3)n3cc(C(N)CC(C)C)nn3)CC2)n1 (stereo unspecified)
  -4	5	/	/	3.7	/	6
> CCOCCOC(=O)c1[nH]c2c(c1C)C(=O)CC(c1cc(OC)c(OC)c(OC)c1)C2 (stereo unspecified)
  15	8	5	-1	0.9	2998	6
> COc1ccc(CCNC(=O)c2c(Cl)ccc(Cl)c2OC)cc1OC
  /	/	1	5	/	4331	/
> COc1cccc(/C=C/C(=O)OCC(=O)NCc2ccco2)c1
  -3	-6	5	-14	7.4	2063	6
> Cc1ccc(NC(=O)CN2CCN(CCN=CC3=C(O)CC(c4ccccc4)CC3=O)CC2)cc1 (stereo unspecified)
  7	7	-8	-18	4.3	2426	3
> Cc1cc(C(=O)OCC(=O)NCc2cccs2)ccc1[N+](=O)[O-]
  17	9	/	-25	4.9	4065	1
> CCc1nnc(N2C(=O)c3cccc4cccc(c34)C2=O)s1
  /	/	4	-17	1.8	2170	6
> C/C(=N\NC(=O)c1ccccc1O)c1c(O)n(Cc2ccccc2)c(=O)[nH]c1=O
  /	/	3	-7	/	?	/
> CC1CCN(Cc2cnc(Cl)s2)CC1
  /	/	2	-10	0.5	4686	2
> CCOc1ccc(-c2c(C(=O)N/N=C/c3cccnc3)nnn2-c2nonc2N)cc1
  /	/	-3	-9	/	5330	/
> COc1ccc(OC)c(NC(=O)CCNS(=O)(=O)c2cccc3nonc23)c1
  -7	5	-5	-27	2.5	5203	3
> O=C(Cn1c(=S)[nH]c2ccccc2c1=O)NCCc1ccccc1
  4	0	-2	-17	6.3	3798	5
> N#CC(c1ccc([N+](=O)[O-])cc1)C(CC(=O)c1ccccc1)c1ccccc1 (stereo unspecified)
  21	13	/	-16	5.8	3748	5
> Cc1onc(-c2ccccc2Cl)c1C(=O)N(Cc1ccc(N(C)C)cc1)C(C)C
  13	1	-3	9	6.3	4135	-3
> Cc1nn(Cc2ccc(F)cc2)c(C)c1NC(=O)C1c2ccccc2Oc2ccccc21
  5	-1	-11	-4	4.4	2726	2
> COC(=O)CCC(=O)OC1(C)C(=O)C=C2C=C(C3CC3)N(CC(C)C)C=C2C1=O (stereo unspecified)
  8	3	-8	/	4.9	/	2
> COc1ccc2[nH]c(O)c(N=NC(=N)N)c2c1
  5	0	-7	0	2.1	2129	5
> O=C(Nc1c(C(=O)N2CCOCC2)cnn1-c1ccccc1)c1ccccc1F
  2	4	-6	1	4.2	6084	3
> CC(C)c1ccc(CN2C(=O)c3ccccc3S2(=O)=O)cc1
  4	-5	2	-23	6.3	2998	26

Additional compounds follow.
The line under a structure holds: Mtb hypoxia inh	Mtb hypoxia inh growth	BJeLR viability	PrP UTR inh	Sa RN4220 lethal	Autofluor counter	Sa ugtP lethal
> CC(=O)c1c(C)[nH]c(C(=O)Nc2ccc(Cl)cc2)c1C
  -2	6	-17	-102	0.1	5952	-14
> Cc1ccc(S(=O)(=O)C2(C(=O)NCCc3ccccc3)CC2)cc1
  3	10	-1	-10	4.8	3805	12
> CN(C)c1ccc(CNc2ccccn2)cc1
  0	-1	-12	-37	1.0	4206	1
> CC(=O)c1cccc(-n2nnnc2SCC(=O)Nc2ccccc2N2CCCCC2)c1
  7	11	8	-8	3.9	2501	-20
> CC(C(=O)N1CCc2ccccc2C1)N(c1ccccc1)S(C)(=O)=O (stereo unspecified)
  12	12	6	-15	7.0	3211	10
> COc1ccc2[nH]c3c(c2c1)CCN1C(=O)C(CC(=O)NCc2ccco2)C[C@H](C(=O)N2CCCCC2)[C@@]31C (stereo partly specified)
  -16	-5	/	-13	2.3	3968	-3
> Cc1ccccc1OCCn1cnc2c(N)ncnc21
  0	-4	11	4	6.3	2523	2
> COc1ccc(C2=NOC(Cn3nc(C(=O)NCc4ccc5c(c4)OCO5)cc3-c3ccccc3)C2)cc1 (stereo unspecified)
  -9	-4	8	-11	0.6	2933	-4
> CSCC[C@H](NC(=O)C1CCN(C(=O)[C@H](Cc2ccccc2)NS(=O)(=O)c2ccc(C)cc2)CC1)C(=O)O
  8	4	6	-11	0.4	3628	3
> COC(=O)c1cc(S(=O)(=O)N2CCN(c3ccccc3)CC2)c[nH]1
  7	-5	6	-14	-5.4	6387	-5
> O=C(NN=CC=Cc1ccccc1)c1cc2c(ccc3ccccc32)o1
  0	10	/	/	2.2	/	-1
> Cc1cc(C)cc(N(CCC(=O)Nc2nnc(C)s2)S(=O)(=O)c2ccc(Cl)cc2)c1
  3	4	-7	-2	2.7	2475	0
> O=C(Nc1ccc(N2CCN(C(=O)c3ccccc3F)CC2)cc1)c1cncc(Br)c1
  1	4	-4	15	0.4	5906	1
> NC(=O)c1ccccc1Br
  21	4	2	-10	4.6	3527	4
> O=S(=O)(c1ccccc1)N1CCN(c2nnnn2-c2ccccc2)CC1
  /	/	1	-2	1.4	3161	4
> CCOC(=O)Nc1cccc(OCC(=O)Nc2ccc(OC)cc2OC)c1
  7	6	-2	3	2.4	?	-8
> CCOc1cc(C=NNC(=O)c2ccncc2)ccc1OC(=O)c1ccco1
  /	/	/	/	-3.5	/	-3
> Nc1ccccc1SSc1ccccc1N
  3	-2	-5	-31	5.1	4051	26
> CCCCn1c(C(C)NC(=O)CC)nc2ccccc21 (stereo unspecified)
  -3	12	-2	-11	16	5162	7
> COc1ccccc1NC(=O)C1CCCN(C(=O)Nc2ccc(F)cc2)C1 (stereo unspecified)
  3	7	-3	-26	1.7	4525	2
> CC(C)OC(=O)c1cccnc1N1CCN(c2ccc(F)cc2)CC1
  -6	-8	23	-1	-7.8	23861*	-1
> CCOCCCN(C(=O)Nc1ccc(CC)cc1)C1CCN(C(C)=O)CC1
  4	4	-4	-17	4.4	8055	1
> Cc1oc(-c2ccccc2Cl)nc1CS(=O)CC(=O)NCc1ccco1 (stereo unspecified)
  -2	-7	-4	-16	5.6	4114	13
> COc1ccc(S(=O)(=O)Nc2cc(C)on2)cc1OC
  /	/	1	-2	1.0	3695	4
> Cn1c2ccccc2c(=O)c2c(=O)n(Cc3ccccc3)c(-c3ccc(F)cc3)nc21
  -7	8	-8	-13	2.8	4307	-5
> O=C(CSc1ccc(-c2ccco2)nn1)NC1CCCC1
  -1	3	19	-15	0.4	3963	6
> CCOC(=O)COc1cc([N+](=O)[O-])cc2cccnc12
  13	5	-1	-3	3.2	3180	4
> CCN(CC)C(=O)CN1CCN(c2ccccc2F)CC1
  7	8	-4	-28	4.5	10820	10
> COc1ccc(N(C(=O)c2snc(C(N)=O)c2N)C(C(=O)NC2CCCC2)c2cc(OC)ccc2OC)c(OC)c1 (stereo unspecified)
  0	4	3	-15	3.1	2813	15
> O=C(CCc1nnc(-c2ccsc2)o1)N1CCc2c(Cl)cccc2C1
  -3	5	1	-48	9.7	2265	19

The last three entries of the section before come first, to join the parts.
The line under a structure holds: Mtb hypoxia inh	Mtb hypoxia inh growth	BJeLR viability	PrP UTR inh	Sa RN4220 lethal	Autofluor counter	Sa ugtP lethal
> CCN(CC)C(=O)CN1CCN(c2ccccc2F)CC1
  7	8	-4	-28	4.5	10820	10
> COc1ccc(N(C(=O)c2snc(C(N)=O)c2N)C(C(=O)NC2CCCC2)c2cc(OC)ccc2OC)c(OC)c1 (stereo unspecified)
  0	4	3	-15	3.1	2813	15
> O=C(CCc1nnc(-c2ccsc2)o1)N1CCc2c(Cl)cccc2C1
  -3	5	1	-48	9.7	2265	19
> CC(=O)c1ccc(NC(=O)c2ccc3c(c2)C(=O)N(c2ccccn2)C3=O)cc1
  -9	-6	-2	-12	1.0	4145	7
> Cc1ccc(C)c(Nc2c([N+](=O)[O-])c(=O)oc3ccccc23)c1
  10	-6	-11	-4	3.2	3865	-1
> CC(C)c1cc(C(=O)NN=C/C(Br)=C/c2ccccc2)n[nH]1
  7	0	/	/	-5.4	/	-15
> O=C1C=CC(=O)N1N(c1ccccc1)c1ccccc1
  12	11	-11	-16	5.4	1959	7
> Cc1oc2cc3c(C(=O)N4CCCCC4)c(C)oc3cc2c1C(=O)N1CCCCC1
  1	7	-9	-123	1.1	8033	2
> CS(=O)(=O)c1ccc(-c2nnc(NC(=O)c3cccc(N4C(=O)CCC4=O)c3)o2)cc1
  2	7	5	-2	2.1	5342	4
> O=C(Nc1ccccc1)NC1CCCCNC1=O (stereo unspecified)
  16	8	-2	/	1.1	3817	2
> O=C(NCCCNC(=O)c1cc(Cl)ccc1Cl)c1ccccn1
  -3	-1	6	-1	-1.3	2960	-4
> O=[N+]([O-])c1ccc(Sc2nnnn2-c2ccccc2)nc1
  /	/	33	/	72	/	54
> CN1CCN(S(=O)(=O)c2ccc(-c3ccc(Cl)cc3)cc2)CC1
  1	1	-16	12	5.1	20018*	4
> O=C(CNC(=O)C12CC3CC(CC(C3)C1)C2)N/N=C\c1ccccn1
  /	/	7	-11	/	5801	/
> O=C(NCc1cccnc1)c1ccc(NC(=O)c2cccc([N+](=O)[O-])c2)cc1
  9	-1	79*	-24	2.1	3844	4
> O=C(CNS(=O)(=O)c1ccccc1)NCC(=O)N1CCCCC1
  14	10	8	-23	3.2	3205	3
> COc1ccc(S(=O)(=O)NCc2nc3nc(C)cc(C)n3n2)cc1OC
  1	4	13	-8	2.1	5077	2
> C=CCN(CC=C)C(=S)NC(=O)c1ccc(OC)c(Br)c1
  7	-2	-4	1	-2.6	9674	14
> CCc1ccc2oc(=O)cc(CN3CCN(CCO)CC3)c2c1
  -12	-4	6	-10	-3.2	8711	-6
> CS(=O)(=O)c1ccc(N2CCN(C3CC(=O)NC3=O)CC2)cc1 (stereo unspecified)
  /	/	8	-21	1.0	2732	-2
> Cn1c(=O)c2c(nc(N3CCCCC3)n2C)n(C)c1=O
  -18	-5	9	-8	0.8	2881	2
> CN(C)CCNc1c2c(c(C#N)c3nc4ccccc4n13)CCCC2
  /	/	-12	-7	/	4239	/
> COC(=O)c1cccc(NC(=O)Cc2ccsc2)c1
  -13	-13	1	-38	-5.9	4037	-6
> O=C(OCCN1CCOCC1)c1cccc(F)c1
  9	0	8	-8	-1.2	/	3
> Cc1ccc(-c2csc(NC(=O)c3ccccc3Cl)c2C(=O)O)cc1
  -3	-6	-4	-1	14	2857	-5
> CN(C1CCCCC1)S(=O)(=O)c1ccc(SCC(=O)C(C)(C)C)nc1
  -2	2	/	0	7.3	?	3
> COC(=O)c1sccc1NC(=O)Nc1ccc(C)cc1C
  -5	-1	-5	-11	4.5	5582	-10
> Cc1ccc(CN(C)Cc2cc(=O)oc3cc(C)c(Cl)cc23)cc1
  -3	2	0	-21	8.7	4264	2

Profiles, looked up by structure:
O=C(CNS(=O)(=O)c1ccccc1)NCC(=O)N1CCCCC1 as listed: Mtb hypoxia inh: 14; Mtb hypoxia inh growth: 10; BJeLR viability: 8; PrP UTR inh: -23; Sa RN4220 lethal: 3.2; Autofluor counter: 3205; Sa ugtP lethal: 3
COC(=O)c1sccc1NC(=O)Nc1ccc(C)cc1C as listed: Mtb hypoxia inh: -5; Mtb hypoxia inh growth: -1; BJeLR viability: -5; PrP UTR inh: -11; Sa RN4220 lethal: 4.5; Autofluor counter: 5582; Sa ugtP lethal: -10
